LT uptake inh: qHTS Assay for Anthrax Lethal Toxin Internalization; Cells, anthrax lethal toxin internalization, FRET ratio (460/530); Potency, µM (titrated, usually from 40 µM), inactives show at the highest dose activity change, negative = inhibition, actives largely listed as inhibitors; 70,000 compounds, 0.67% hits; active = well fitted falling ratio curve with the 530 nm signal flat; inconclusive = other ratio curves, or a change in one channel alone; inactive = flat curves in the ratio and both channels; the % refers to the ratio; note: % is set by controls: 0 for no effect and ±100 for the full control effect; nearly all actives have a fitted effect of over 50% in size; tested in ME-180 cells; beta-lactamase reporter
Prx2 Sm inh: Schistosoma Mansoni Peroxiredoxins (Prx2) | Schistosoma mansoni peroxiredoxin 2 (Prx2) | AID 448, 2006 | S. mansoni Prx2 activity coupled to TGR/GSH (TGR is thioredoxin glutathione reductase), NADPH fluorescence loss, qHTS; some inactives read as strong as hits | 65,000 compounds, 0.07% hits | Potency, µM; active means full or partial inhibition curve with a strong effect at the top dose; inconclusive means weaker partial or single-point curve; inactive means no accepted curve; note: series up to 57 µM; many of its hits are not listed in these tables
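Prx2 inhibition was measured as reduced NADPH consumption when electrons flowed from NADPH through TGR and glutathione to Prx2 and H2O2. Plates were read kinetically over 8 min; enzyme reagents were held at 4 deg C during dispensing.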
* = called active by the depositor; ? = inconclusive; / = not tested or not shown; & = joins results of further samples; [ ] = remark or other dose. Potency is the fitted concentration of half-maximal effect.

SMILES | LT uptake inh | Prx2 Sm inh
COc1cc(C(=O)N(CCc2ccccc2)C2CC3CCC(C2)N3C)cc(OC)c1OC (centres undefined) | -13% | >57
CCN(CC)c1ccc2c(c1)OC(N)=C(C#N)C2c1cccnc1 (centres undefined) | ? | >57
CCOc1cc(/C=C(/C#N)c2ccc(F)cc2)ccc1OCc1ccc(C(=O)O)o1 | -25% | >57
CCCn1c(SCC(=O)/C(C#N)=C(\C)N)n[nH]c1=O | -16% | >57
COc1ccccc1OCC(=O)N1CCNC1=O | 0% | >57
CSCCC(NC(=O)c1cncc(Br)c1)C(=O)O (centres undefined) | -18% | >57
CCOC(=O)C1CCCN(C(=O)c2cc(-c3ccccc3)on2)C1 (centres undefined) | -7% | >57
CCOC(=O)N1CCC(NC(=O)c2ccc(CS(=O)(=O)c3ccc(OC)cc3)o2)CC1 | 7% | >57
O=C(Cn1c(=O)oc2ccccc21)N1CCN(c2ccccc2)CC1 | -16% | >57
O=C(COC(=O)c1cnccn1)c1ccccc1 | 1% | >57
COc1ccc(S(=O)(=O)N[C@@H](CC(C)C)C(=O)O)cc1 | -5% | >57
O=C(Nc1nc(-c2ccc3c(c2)OCO3)cs1)C1COc2ccccc2O1 (centres undefined) | ? | >57
Cc1onc(-c2ccccc2Cl)c1C(=O)N1CC(C)OC(C)C1 (centres undefined) | 2% | >57
O=C(COC(=O)c1ccccc1)NCc1ccco1 | -3% | >57
COCCCn1c2nc3ccccc3nc2c2c(=O)n(Cc3ccccc3Cl)cnc21 | -2% | >57
CCCCCCCCCCCCC/C=C\[C@@H](O)[C@H](CO)NC(C)=O | 16µM* | >57
Cc1cccc(NC(=O)Cn2c(=O)oc3ccccc32)c1 | 20% | >57
O=C(NCCc1ccccc1)C1CCCN(C(=O)NC2CCCCC2)C1 (centres undefined) | ? | >57
O=C(Cn1c(=O)oc2ccccc21)N1CCCCC1 | 0% | >57
COc1ccc(-c2nc(C#N)c(NCC3CCCO3)o2)cc1 (centres undefined) | 2% | >57
COC(=O)COC(=O)c1ccc(Oc2nc(OC)nc(N(C)C)n2)cc1 | ? | /
COc1cccc(Nc2ncc3nc(C)c(=O)n(CCc4ccccc4)c3n2)c1 | ? | >57
COc1ccc(CN2C(=O)C(O)(CC(=O)c3c(C)n[nH]c3C)c3ccccc32)cc1OC (centres undefined) | -3% | >57
Cc1nc2cnc(Oc3ccccc3)nc2n(CCc2ccccc2)c1=O | -12% | >57
CC[C@]1(O)C(=O)OCc2c1cc1n(c2=O)Cc2cc3ccccc3nc2-1 | ? | >57

The final 4 entries of the part before lead into the next.
SMILES | LT uptake inh | Prx2 Sm inh
COc1cccc(Nc2ncc3nc(C)c(=O)n(CCc4ccccc4)c3n2)c1 | ? | >57
COc1ccc(CN2C(=O)C(O)(CC(=O)c3c(C)n[nH]c3C)c3ccccc32)cc1OC (centres undefined) | -3% | >57
Cc1nc2cnc(Oc3ccccc3)nc2n(CCc2ccccc2)c1=O | -12% | >57
CC[C@]1(O)C(=O)OCc2c1cc1n(c2=O)Cc2cc3ccccc3nc2-1 | ? | >57
C1CCC2(CC1)C1=C(CCCC1)Nc1nnnn12 | 1% | >57
CCOC(=O)c1ccc(NC(=O)NCc2ccn(CC)n2)cc1 | 20% | >57
CC(=O)c1cccc(NC2c3ncccc3C(=O)N2Cc2ccco2)c1 (centres undefined) | 14% | >57
N#Cc1ccc(CSc2ncnc3c2cnn3Cc2ccccc2)cc1 | -2% | >57
O=C(NCc1ccco1)C(c1cccnc1)N(C(=O)Cn1nnc2ccccc21)c1ccc(F)cc1 (centres undefined) | 1% | >57
CN(CCC#N)S(=O)(=O)c1ccc2c(c1)c(=O)n(C)c(=O)n2C | -10% | >57
CCCCCCn1c(N(CC)CC)nc2c1c(=O)[nH]c(=O)n2C | -4% | >57
Cc1ccc(-c2noc(CSc3nnc(-c4ccccc4)n3C)n2)cc1 | 0% | >57
O=C(CSc1ccccc1)Nc1ccc(S(=O)(=O)NCC2CCCO2)cc1 (centres undefined) | -10% | >57
CN(C)C(=O)c1ccc(-c2nc(NCc3cccnc3)c3ccccc3n2)cc1 | ? | >57
COC(=O)c1c(NC(=O)CN2CCN(c3ccccc3OC)CC2)c2cc(C)ccc2n1C | -3% | >57
CCCn1c(=O)[nH]c2nc(-c3ccc(S(=O)(=O)O)cc3)[nH]c2c1=O | -22% | >57
O=C(O)CCC(=O)N1CCc2cc(S(=O)(=O)NC3CCCc4ccccc43)ccc21 (centres undefined) | -7% | >57
COC(=O)c1ccccc1NC(=O)c1cncc(Br)c1 | 11% | >57
COc1cccc(S(=O)(=O)Nc2cccnc2)c1 | -2% | >57
Cc1cc(C)n(-c2c(F)c(F)c(CN3CCOCC3)c(F)c2F)n1 | -19% | >57
O=C(O)CCc1nc(-c2ccccc2)c(-c2ccccc2)o1 | ? | >57&>57&>57
Clc1ccc(C2=CSC3=NCCN23)cc1Cl | ? | >57
Cc1nnc2c3ccccc3c(-c3ccccc3)nn12 | ? | >57
COC(=O)[C@@]1(Cc2ccccc2)[C@H]2c3cc(C(=O)N4CCCC4)n(Cc4cc(F)cc5c4OCOC5)c3C[C@H]2CN1C(=O)c1ccccc1 | ? | >57
O=C(OCc1nc2ccccc2s1)c1ccc(Br)s1 | 6% | >57
CCCCC(=O)NC1=NC(=O)C(C)(C)S1 | -1% | >57
Cn1c(O)c(C(=NCCN2CCCCC2)c2ccccc2Cl)c(=O)n(C)c1=O | -11% | >57
CO[C@H]1COC(=O)C/C=C\[C@H](C)[C@@H](OC)COC(=O)[C@H](Cc2ccccc2)NC(=O)C/C=C\[C@@H]1C | -10%[8 µM] | /
Nc1c(C(=O)NCC2CCCO2)sc(=S)n1-c1ccccc1 (centres undefined) | -6% | /

Compound profiles, from the list above. Order of screens: LT uptake inh	Prx2 Sm inh
Profile of Cn1c(O)c(C(=NCCN2CCCCC2)c2ccccc2Cl)c(=O)n(C)c1=O = -11%	>57
Profile of CC(=O)c1cccc(NC2c3ncccc3C(=O)N2Cc2ccco2)c1 (centres undefined) = 14%	>57
Profile of C1CCC2(CC1)C1=C(CCCC1)Nc1nnnn12 = 1%	>57

The listing continues:
SMILES | LT uptake inh | Prx2 Sm inh
CC(NC(=O)c1noc2c1CCCCC2)c1ccccc1 (centres undefined) | 9% | >57
O=C(CSc1nnc2ncccn12)N1CCCCCC1 | 5% | >57
COc1cc(C)c(Cl)cc1S(=O)(=O)NCC1CCCO1 (centres undefined) | 5% | >57
CCOC(=O)c1cccc(NC(=O)CN(c2ccc(C)cc2)S(=O)(=O)c2c(C)noc2C)c1 | ? | >57
COc1ccc(N2C(=O)CC(Sc3nnc(-c4ccccc4)o3)C2=O)cc1 (centres undefined) | ? | /
COc1ccc(C2CC(C(F)(F)F)n3nc(C(=O)O)c(Cl)c3N2)cc1OC (centres undefined) | -8% | /
Cc1nc(C)c(C(=O)Nc2ccc(Oc3ccccc3)cc2)o1 | ? | >57
COc1ccc(OCC(=O)Nc2cccc(NC(=O)COc3ccc(OC)cc3)n2)cc1 | -16% | >57
CCOc1cc2[nH]c(=O)n(CCCC(=O)NCc3ccco3)c(=O)c2cc1OCC | 7% | >57
Cn1c(=O)c2nc(-c3ccc(Cl)cc3Cl)oc2c2ccccc21 | -19% | >57
COc1cc(C(=O)Nc2c(-c3ccccn3)c(=O)c3ccccc3n2C)cc(OC)c1OC | ? | >57
CC(=O)OC(C(=O)NC1CCCCC1)c1ccc(C#N)cc1 (centres undefined) | -18% | >57
N=c1n(CCN2CCCC2)c2ccccc2n1CC(O)c1ccco1 (centres undefined) | -22% | >57
NC(=O)CS(=O)C[C@H](N)C(=O)O (some centres undefined) | -2%[8 µM] | >57
COc1ccc(NC(=O)C(c2ccccc2)N(C)C(=O)c2cnccn2)cc1 (centres undefined) | 6% | >57
O=C(O)c1cccc(NC(=O)C23CC4CC(C2)CC(n2cnc(Cl)n2)(C4)C3)c1 | -8% | >57
c1ccc2[nH]c(CSc3nnc(-c4ccncc4)o3)nc2c1 | 16% | >57
Cc1nonc1OCCn1nnnc1N | 1% | >57
CCSc1nc2c(c(=O)n1-c1ccc(F)cc1)SCC2 | -14% | >57
N#Cc1cccc(-c2cncnc2NCc2ccccc2)c1 | ? | >57
CCn1c(=O)c(C(=O)Nc2ccccc2S(N)(=O)=O)c(O)c2ccccc21 | -1% | >57
Cc1nnc(SCc2nnc(-c3ccc(Cl)cc3)o2)n1-c1ccccc1 | -2% | >57
O=C(NCc1ccc(F)cc1)c1noc2c1CCCCC2 | -11% | >57
c1cc(CN2CCCC3(CCNCC3)C2)ccn1 | ? | >57
COc1ccc(NC(=O)CSC2CC(=O)N(c3ccc4c(c3)OCCO4)C2=O)cc1 (centres undefined) | 7% | >57

Shown with tabs: 2 of the compounds above
structure	LT uptake inh	Prx2 Sm inh
Cc1nonc1OCCn1nnnc1N	1%	>57
O=C(O)c1cccc(NC(=O)C23CC4CC(C2)CC(n2cnc(Cl)n2)(C4)C3)c1	-8%	>57

Additional results
SMILES | LT uptake inh | Prx2 Sm inh
O=C(c1ccc2snnc2c1)N1CCOCC1 | -8% | /
CO[C@@H]1/C=C\CC(=O)N2CCC[C@@H]2C(=O)OC[C@H](C)C(=O)OC[C@H]1C | 15%[8 µM] | /
Cc1c(C(=O)Nc2cccc(Cl)c2)oc2ccc(S(=O)(=O)N3CCC4(CC3)OCCO4)cc12 | -3% | >57
O=C(Nc1nc(-c2ccc3c(c2)OCO3)cs1)C1CC1 | -19% | >57
O=C(O)CCCN1C(=O)NC2NC(=O)NC21 (centres undefined) | -3% | >57
O=C(O)c1ccc(NCc2cccnc2)cc1 | 8% | >57
CC(C)=C(NC(=O)c1ccco1)C(=O)NCCc1nc2ccccc2[nH]1 | -12% | >57
CCC[C@@H]1C[C@@]1(CCC)[C@@H](NC(=O)c1ccccc1)c1ccc(C(=O)OC)cc1 | -19% | /
CCCOCCOC(=O)C1=C(C)NC(=O)NC1c1cc(Cl)c(O)c(OC)c1 (centres undefined) | 13% | >57
CCCC(=O)NCCc1cc2ccc(C)c(C)c2[nH]c1=O | 6% | >57
O=C(Cc1ccc(-c2ccccc2)cc1)NCCN1CCOCC1 | 8% | >57
CCC(C)(C)n1nnnc1C(c1ccc(Cl)cc1)N1CCN(C)CC1 (centres undefined) | -13% | >57
C/C(N)=C(/C#N)C(=O)COc1ncnc2ccccc12 | -15% | >57
CCCCS(=O)CC(O)COc1ccc(C(C)(C)C)cc1 (centres undefined) | -10% | /
O=C(NC1CCCCC1)c1cc(-c2ccco2)on1 | -1% | >57
Cc1nc2sc(C(c3ccco3)N3CCC(C)CC3)c(O)n2n1 (centres undefined) | 11% | >57
CCCCNC(=O)CCC(=O)Nc1ccc2nc(N3CCOCC3)cc(C)c2c1 | -3% | >57
Cc1c(C(=O)O)oc2ccc(S(=O)(=O)NCc3ccccc3)cc12 | -4% | >57
Cc1cc(NC(=O)c2cnn3c(C(F)F)cc(-c4ccccc4)nc23)no1 | -5% | >57
O=C(O)c1cc(NCc2c(F)cccc2Cl)ccc1N1CCOCC1 | -9% | >57
CC(C)NC(=O)N1CCC2(CC1)CCN(S(=O)(=O)c1ccccc1)CC2 | ? | >57
Nc1cc(C(Cl)=C(Cl)Cl)c(S(N)(=O)=O)cc1S(N)(=O)=O | 1%[3.58 µM] | >57
COc1ccc(C(=O)N2CCC3(CCCN(c4ccccn4)C3)CC2)cc1 | ? | >57
Cc1ccc(S(=O)(=O)c2c(C)nn(C(C)(C)C)c2OC(=O)C(C)(C)C)cc1 | -24% | >57
Cc1cc(C)nc(N2CCC(C(=O)NC3CCCc4ccccc43)CC2)n1 (centres undefined) | 2% | >57

New compounds follow:
SMILES | LT uptake inh | Prx2 Sm inh
CCOC(=O)N1CCN(C(=O)CS(=O)(=O)c2cn(Cc3ccccc3C)c3ccccc23)CC1 | 4% | >57
O=C1Cc2ccccc2C(=O)N1CCc1ccccc1 | -13% | >57
CN1CCN(c2ncc3nc(-c4cn(C)c5ccccc45)c(=O)n(-c4ccccc4)c3n2)CC1 | ? | >57
Cc1ccc(C2C(C#N)=C(N)Oc3nc(-c4ccccc4)[nH]c32)o1 (centres undefined) | -3% | >57
Cc1cccc(C)c1NC(=O)C1(NC(=O)C2CCCN2C(=O)OC(C)(C)C)CCCCC1 (centres undefined) | 7% | >57
O=C(c1cc2ccccc2oc1=O)N(Cc1ccco1)C1CCS(=O)(=O)C1 (centres undefined) | / | >57
C=CCNc1nc(-c2c(C)nc3sccn23)cs1 | -14% | >57
CCCn1cc(SCC(=O)Nc2nnc(C)s2)c2ccccc21 | 1% | >57
CCOC(=O)Cc1nnc(NC(=O)CC)s1 | -9% | >57
N#Cc1cc(C(=O)c2cc(Br)ccc2O)cn(C2CC2)c1=O | -14% | >57
O=C(NCc1ccccc1Cl)C1CCN(C(=O)c2sccc2-n2cccc2)CC1 | 13µM* | >57
CC(C)(CC(=O)O)Cc1nc(-c2ccc(Cl)cc2)no1 | -2% | >57
O=C(/C=C\Nc1ccc2c(c1)OCO2)c1ccccn1 | ? | /

From PubChem BioAssay

Only part of the results is shown. The share of hits here may be higher or lower than overall.
